Beta2AR agonist: beta2AR agonists driving receptor internalization, primary screen, cell-based, FAP fluorogen, flow cytometry; Beta-2 adrenergic receptor (Homo sapiens), P07550; Am2.2-beta2AR cells; reference of the scale not given here; response, % (test concentration not listed); 0.43% of 340,000 active; AID 504454, 2011;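 active = response above a set limit, near 3 SD of response in nonfluorescent compounds, cut at about 42% in these data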;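 also: stock transfer was 100 nL into about 11 µL; a reference agonist was the positive control; negative values mostly stem from fluorescent compounds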
UCH37 DUB inh: inhibitors of human UCH37 deubiquitinase, primary screen, biochemical, Ub-AMC cleavage, fluorescence; purified proteasome/UCH37; inhibition, % (test concentration not listed); 0.33% of 330,000 active; AID 588478, 2011;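 active = mean of two replicates above 20%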;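 also: 0% = compound-free wells with enzyme and 100% = wells lacking proteasome; stock transfer was 100 nL into about 20 µL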
Target sequence (Q9Y5K5 whole entry, looked up): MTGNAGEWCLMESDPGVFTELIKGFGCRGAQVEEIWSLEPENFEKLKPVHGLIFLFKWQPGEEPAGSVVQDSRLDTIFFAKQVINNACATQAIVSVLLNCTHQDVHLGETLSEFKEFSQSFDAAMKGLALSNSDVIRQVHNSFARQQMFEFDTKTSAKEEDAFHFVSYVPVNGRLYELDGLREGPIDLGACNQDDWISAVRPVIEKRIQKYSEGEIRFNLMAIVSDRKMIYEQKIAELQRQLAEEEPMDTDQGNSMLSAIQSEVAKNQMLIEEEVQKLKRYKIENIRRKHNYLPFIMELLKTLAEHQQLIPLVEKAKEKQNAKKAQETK
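Schedule: 30 min plus 25 min, room temperature / Material: human UCH37 within purified proteasomes / Technique: AMC fluorescence intensity at 355/460 nm / Buffer or medium: pH 7.4 Tris-HCl (50 mM) with ovalbumin, ATP-MgCl2, DTT / Controls: wells without proteasome as full block, compound-free enzyme plus substrate as uninhibited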
HNF4A DNA FP: change in binding of human HNF4A to DNA, primary screen, biochemical, fluorescence polarization, FITC-DNA | Hepatocyte nuclear factor 4-alpha (Homo sapiens), P41235 | 0.3% of 360,000 active | 1 h | activity change, % at 10 µM; in the data active = activity change above about 30%, passing the limit was not always enough;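 also: controls were the assay level and a saturating level of protein; the project sought stronger binding though the title names inhibitors; some compounds called inactive have numbers as strong as hits; positive values seem to mean higher polarization but the record does not say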
Target sequence (P41235 whole entry, looked up): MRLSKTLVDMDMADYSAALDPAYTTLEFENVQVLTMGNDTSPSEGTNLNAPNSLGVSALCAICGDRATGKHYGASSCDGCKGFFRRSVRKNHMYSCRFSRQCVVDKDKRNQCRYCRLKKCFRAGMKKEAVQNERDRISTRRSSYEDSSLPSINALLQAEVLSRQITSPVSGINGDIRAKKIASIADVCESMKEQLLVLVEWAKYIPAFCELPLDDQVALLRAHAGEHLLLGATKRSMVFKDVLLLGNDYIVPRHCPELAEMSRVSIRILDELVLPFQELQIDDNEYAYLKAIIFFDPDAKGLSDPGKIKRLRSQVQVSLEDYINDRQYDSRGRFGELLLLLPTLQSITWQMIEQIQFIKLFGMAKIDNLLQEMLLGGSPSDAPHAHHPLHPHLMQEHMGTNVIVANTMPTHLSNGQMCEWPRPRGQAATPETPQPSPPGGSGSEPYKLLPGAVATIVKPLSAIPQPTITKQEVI
FGF22 binding: binders of human FGF22 protein, primary screen, FGF22 synaptogenesis inhibitor project, biophysical, thermal shift, single point | Fibroblast growth factor 22 (Homo sapiens), Q9HCT0 | recombinant FGF22 thermal shift, SYPRO orange fluorescence; percent of sucrose octasulfate shift, DMSO zero | calls only at 9.99 µM | 1.5% of 340,000 active;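 active = melting point raised past a set limit in the mean and every replicate; three in four hits are not shown here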
Target sequence (Q9HCT0 whole entry, looked up): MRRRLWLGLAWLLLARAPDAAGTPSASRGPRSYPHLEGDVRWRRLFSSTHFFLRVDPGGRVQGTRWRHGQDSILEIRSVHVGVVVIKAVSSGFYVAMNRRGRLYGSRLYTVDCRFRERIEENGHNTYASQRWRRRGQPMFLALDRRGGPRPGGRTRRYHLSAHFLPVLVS
Ecoli growth: E. coli growth inhibition, primary screen, OD600 | AID 1053175, 2014 | 0.21% of 330,000 active | Escherichia coli growth, 23 h; active compounds read low | OD600 absorbance (concentration not given with the values);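 active = OD600 absorbance below the run mean of sample wells minus 3.6 SD, in any replicate, cut at about 0.56 in these data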;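 also: stock transfer was 300 nL into about 60 µL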
The depositor's hits bear a star; i = inactive; nt = not tested or not shown. Only part of the results is shown. The share of hits here may be higher or lower than overall.

Every second line gives: Beta2AR agonist, UCH37 DUB inh, HNF4A DNA FP, FGF22 binding, Ecoli growth
COc1cccc(C=NNC(=O)c2nnn(-c3nonc3N)c2C(C)C)c1OCc1ccc(F)cc1
  nt, 0.5, nt, nt, 0.66
Cc1ccc(C(=O)NN=Cc2ccc(-c3ccccc3[N+](=O)[O-])o2)cn1
  nt, 12, nt, nt, 0.64
S=c1[nH]nc(COc2ccccc2)n1N=Cc1ccccn1
  nt, 4.7, nt, nt, 0.67
COc1ccc(NC(=O)COc2ccc(C=Nn3c(C)nnc3C)cc2OC)cc1
  nt, 4.6, nt, nt, 0.71
CCCOc1ccc(-c2c(C(=O)NN=Cc3ccc(OCC)cc3)nnn2-c2nonc2N)cc1
  nt, -29, nt, nt, 0.68
CCN(CC)C(=NS(=O)(=O)c1ccc(C)cc1)c1ccccc1
  nt, 3.1, nt, nt, 0.68
O=C(Cc1c[nH]c2ccccc12)NN=Cc1ccccc1O
  nt, -9.5, nt, nt, 0.67
O=C(NN=Cc1cccnc1)c1cccc(N2CCCC2=O)c1
  nt, 2.4, nt, nt, 0.64
C(/C=C/c1ccccc1)=NN1CCN(c2ccccn2)CC1
  nt, 4.8, nt, nt, 0.73
CCN=c1scc(-c2ccc(F)cc2)n1N=Cc1ccccn1
  nt, 0.6, nt, nt, 0.64
COCc1c(C(=O)NN=Cc2ccncc2)nnn1-c1nonc1N
  nt, -0.1, nt, nt, 0.66
CC(=NNC(=O)c1cccc(Cl)c1)c1cccc(NC(=O)c2ccco2)c1
  nt, -0.7, nt, nt, 0.68
COc1ccc(C=NNC(=O)CSc2ccccc2)cc1OC
  nt, 2.3, nt, nt, 0.71
S=C(NCc1ccco1)NN=Cc1ccccc1Cl
  nt, 2.6, nt, nt, 0.72
Cc1c(Cl)cccc1NC(=O)CCC(=O)NN=Cc1ccc[nH]1
  nt, 3.6, nt, nt, 0.65
CC(C)(C)c1nnc(NN=Cc2ccc(O)cc2)n(N)c1=O
  nt, 9.2, nt, nt, 0.64
O=C(NN=Cc1cccnc1)c1ccco1
  nt, 1.8, nt, nt, 0.62
Nc1nonc1-n1nnc(C(=O)NN=Cc2ccoc2)c1-c1ccccc1
  nt, 6.9, nt, nt, 0.67
C=CCOc1ccc(C=NNC(=O)CN2CCCCC2)cc1OC
  nt, 5.7, nt, nt, 0.67
Cc1ccc2nc(N=C(N)NC(=O)N3c4ccccc4Sc4ccccc43)nc(C)c2c1
  nt, 3.9, nt, nt, 0.73
N#C/C(=C(/O)CON=Cc1ccccc1Cl)c1nc2ccccc2[nH]1
  nt, 0.3, nt, nt, 0.62
O=C(NN=Cc1ccc(N2CCOCC2)cc1)c1ccc(NS(=O)(=O)c2cccs2)cc1
  nt, -29, nt, nt, 0.66
COC(=O)NN=C(c1ccccc1)C1CCCCC1
  nt, 1.7, nt, nt, 0.62
NC(=NOC(=O)Nc1ccccc1)c1ncc([N+](=O)[O-])s1
  nt, 6.2, nt, nt, 0.65
Oc1ccc(C=NNC(=S)N2CCOCC2)cc1
  nt, 8.5, nt, nt, 0.67
COc1cc([N+](=O)[O-])cc(C=NNC(=O)C(C)Nc2cccc3ccccc23)c1O (stereo unspecified)
  nt, 1.4, nt, nt, 0.7
COc1ccc(-c2nn(-c3ccccc3)cc2C=Nn2cnnc2)cc1OC
  nt, -0.1, nt, nt, 0.73
Cc1nn(-c2ccccc2)c(N2CCCC2)c1C=NNC(=O)c1cc(-c2cccs2)nc2ccccc12
  nt, -7.5, nt, nt, 0.68
CC(=NNC(=O)c1sccc1C)c1cccnc1
  nt, 5.4, nt, nt, 0.72
CN(N=Cc1cccnc1)C1=NS(=O)(=O)c2ccccc21
  nt, -22, nt, nt, 0.69

Reformatted tab-delimited: entries from further up
molecule	Beta2AR agonist	UCH37 DUB inh	HNF4A DNA FP	FGF22 binding	Ecoli growth
N#C/C(=C(/O)CON=Cc1ccccc1Cl)c1nc2ccccc2[nH]1	nt	0.3	nt	nt	0.62
O=C(NN=Cc1ccc(N2CCOCC2)cc1)c1ccc(NS(=O)(=O)c2cccs2)cc1	nt	-29	nt	nt	0.66

Other entries.
Every second line gives: Beta2AR agonist, UCH37 DUB inh, HNF4A DNA FP, FGF22 binding, Ecoli growth
Cc1ccc(OCC(=O)NN=Cc2cn(C)c3ccccc23)c([N+](=O)[O-])c1
  nt, 3.3, nt, nt, 0.74
CCCCCC(=O)NN=C(C)c1ccc(N2CCCCC2)cc1
  nt, -0.1, nt, nt, 0.65
O=C(CNc1n[nH]c(=O)[nH]c1=O)NN=CC1CC=CCC1 (stereo unspecified)
  nt, 1.7, nt, nt, 0.67
C=CCOC(=O)C1=C(C)N=c2sc(=C3C(=O)N(CC(=O)O)c4ccccc43)c(=O)n2C1c1ccc(OC)cc1 (stereo unspecified)
  nt, 5.2, nt, nt, 0.7
CCOC(=O)NN=Cc1c(F)cccc1F
  nt, 2.4, nt, nt, 0.66
NC(CN1CCCC1=O)=NO
  nt, 1.7, nt, nt, 0.66
CC(CC(=O)Nc1cccnc1)=NNC(=O)COc1ccc(Cl)cc1Br
  nt, 4.1, nt, nt, 0.63
O=C1NC(Cc2cnc[nH]2)C(=O)N2CCCC12 (stereo unspecified)
  nt, nt, nt, i, 0.72
COC1=CC(=O)c2ccccc2C1=O
  -3, nt, 1.0, nt, nt
c1ccc2c(c1)OC1OC2Oc2ccccc21
  4, nt, -2.6, nt, nt
NC(=S)N/N=C/c1ccccc1
  7, nt, -2.4, nt, nt
Cc1ccc(-c2nn(-c3ccccc3)cc2/C=N/NC(=O)c2ccc3c(c2)OCO3)cc1
  32, nt, 2.4, nt, nt
COC(=O)N/N=C/c1c(C)c(C(=O)c2ccc(F)cc2)n2ccccc12
  -4, nt, 2.7, nt, nt
O=C(C#Cc1ccccc1)c1ccc([N+](=O)[O-])cc1
  69*, nt, -0.6, nt, nt
COc1ccc(/C=N/Nc2ncnc3sc4c(c23)CCCC4)cc1OC
  5, nt, 0.5, nt, nt

Next section (three carried over from the part before).
Every second line gives: Beta2AR agonist, UCH37 DUB inh, HNF4A DNA FP, FGF22 binding, Ecoli growth
COC(=O)N/N=C/c1c(C)c(C(=O)c2ccc(F)cc2)n2ccccc12
  -4, nt, 2.7, nt, nt
O=C(C#Cc1ccccc1)c1ccc([N+](=O)[O-])cc1
  69*, nt, -0.6, nt, nt
COc1ccc(/C=N/Nc2ncnc3sc4c(c23)CCCC4)cc1OC
  5, nt, 0.5, nt, nt
O=C(O)c1cc(N/C(=N\S(=O)(=O)c2ccc(F)cc2)c2ccccc2)ccc1O
  6, nt, 2.8, nt, nt
O=C(NC1C/C=C\C(c2ccccc2)N(c2ccccc2)C(=O)C1)OCC1c2ccccc2-c2ccccc21 (stereo unspecified)
  3, nt, 2.0, nt, nt
COc1ccc(/C=C/C(=O)Nc2ccc(C)c(S(=O)(=O)N3CCOCC3)c2)cc1
  20, nt, 4.0, nt, nt
O=c1/c(=C\c2cccn2-c2ccccc2)sc2nc3ccccc3n12
  0, nt, -8.4, nt, nt
CC(C)C[C@@H](CN)NC(=O)c1nc[nH]c1C(=O)N[C@@H](CC(C)C)C(=O)CNC[C@H](C)NC(=O)c1nc[nH]c1C(=O)N[C@@H](CC(C)C)C(=O)O
  -1, nt, 2.5, nt, nt
O=C(Nc1ccc2nc(-c3ccco3)c(-c3ccco3)nc2c1)NC1CC1
  27, nt, -36, nt, nt
Cc1ccc(-c2cc(C(=O)N/N=C/c3c(C)nn(-c4ccccc4)c3C)[nH]n2)cc1
  26, nt, 1.1, nt, nt
COC(=O)C(=O)/C=C(\O)c1ccc(C)cc1
  14, nt, 4.1, nt, nt
CCOc1cc(/C=N/N=C2/NC(=O)C(CC(=O)O)S2)ccc1OS(=O)(=O)c1ccc(C)cc1 (stereo unspecified)
  -10, nt, 1.9, nt, nt
CCOc1ccc2c(ccc(/C=C/c3cc(C)c4cccnc4c3O)[n+]2C)c1
  106*, nt, 6.0, nt, nt
CSc1ccc(/C=N/Nc2cccc(C(=O)O)c2)cc1
  2, nt, -61, nt, nt
Cc1ccc(CN2CCN(/N=C/c3ccc(C)s3)CC2)cc1
  4, nt, 1.5, nt, nt
CCC1(OC(=O)CN(C)C)C(=O)OCc2c1cc1n(c2=O)Cc2cc3c(N)cccc3nc2-1 (stereo unspecified)
  5, nt, -4.6, nt, nt
O=C(CN1CCSCC1)N/N=C/c1ccccc1F
  2, nt, -3.1, nt, nt
Cc1nc(N2N=C3/C(=C/c4ccc(F)cc4)CCCC3C2c2ccc(F)cc2)sc1C(=O)N(C)C (stereo unspecified)
  4, nt, 8.0, nt, nt

An excerpt from above in order of their number in Beta2AR agonist, lowest first.
SMILES	Beta2AR agonist	UCH37 DUB inh
CCOc1cc(/C=N/N=C2/NC(=O)C(CC(=O)O)S2)ccc1OS(=O)(=O)c1ccc(C)cc1 (stereo unspecified)	-10	nt
CSc1ccc(/C=N/Nc2cccc(C(=O)O)c2)cc1	2	nt
O=C(O)c1cc(N/C(=N\S(=O)(=O)c2ccc(F)cc2)c2ccccc2)ccc1O	6	nt
O=C(Nc1ccc2nc(-c3ccco3)c(-c3ccco3)nc2c1)NC1CC1	27	nt

Continuation.
Every second line gives: Beta2AR agonist, UCH37 DUB inh, HNF4A DNA FP, FGF22 binding, Ecoli growth
CN(C)/C(=N\OC(=O)c1ccccc1)c1nonc1N
  -1, nt, -2.4, nt, nt
O=C(OCC#CCSc1nnc(-c2ccncc2)o1)c1sc2ccccc2c1Cl
  -1, nt, 2.2, nt, nt
Cc1ccc(NC(=S)N(CCCN2CCOCC2)Cc2cccs2)c(C)c1
  -3, nt, -1.8, nt, nt
CCC(C)NC(=O)/C=C1\Sc2ccccc2NC1=O (stereo unspecified)
  -12, nt, -2.0, nt, nt
CCOC(=O)[C@H]1[C@H]2COc3ccc(Cl)cc3[C@@H]2N2C(=O)[C@H](C)NC(=O)[C@@]12C
  7, nt, 3.6, nt, nt
CCCC/C=C1/CCC(CN(C)C)C1=O (stereo unspecified)
  16, nt, -0.7, nt, nt
N#Cc1c(/N=C/c2ccc(Br)s2)sc2c1CCC2
  4, nt, 3.8, nt, nt
Brc1ccc2ncc3ccccc3c2c1
  -10, nt, -2.5, nt, nt
O=c1[nH]ncc(N/N=C/c2ccccc2)c1Cl
  -13, nt, 1.0, nt, nt
CCc1nnc(NC(=O)c2cc(S(=O)(=O)N3CCN(CC)CC3)ccc2Cl)s1
  13, nt, 3.9, nt, nt
Fc1ccc(CNc2ccc(CNc3ncn[nH]3)cc2)cc1
  8, nt, 2.0, nt, nt
O=C(NCCc1ccccc1F)C1CC(=O)N(c2cccc(C(F)(F)F)c2)C1 (stereo unspecified)
  1, nt, -0.9, nt, nt
Cc1cccc(C)c1NC(=O)COC(=O)c1cc(S(=O)(=O)Nc2ccc(Cl)cc2)ccc1O
  -1, nt, 6.1, nt, nt
O=C(Nc1cc2c(cc1Cl)-c1ccc([N+](=O)[O-])cc1C2=NO)C(F)(F)F
  -14, nt, 25, nt, nt
Cc1ccc(C(=O)c2cc([N+](=O)[O-])ccc2N2CCOCC2)cc1
  1, nt, 1.7, nt, nt
COc1ccccc1/C=N/n1c(N)c(C(=O)NC2CCCCC2)c2nc3ccccc3nc21
  5, nt, 2.0, nt, nt
CCOc1ccc(CNC(=S)N/N=C/c2ccc(OC)c(OC)c2)cc1
  -4, nt, 4.2, nt, nt
CCSc1ncc(Cl)c(C(=O)Nc2ccccc2)n1
  11, nt, 5.7, nt, nt
C/C(=N\Nc1ccc(F)cc1)c1ccncc1
  -5, nt, -3.6, nt, nt
COc1cc(C(=O)O/N=C2/C=CC(=O)C(C)=C2C)cc(OC)c1OC
  1, nt, -1.1, nt, nt
CCOc1ncccc1C(=O)OC(C)C(=O)Nc1ccc(Cl)cn1 (stereo unspecified)
  6, nt, 2.5, nt, nt
O=C(c1ccc(S(=O)(=O)Nc2ccccc2F)cc1)N1CCN(c2ccccn2)CC1
  -2, nt, -4.3, nt, nt

Source: PubChem BioAssay
